Menin-MLL FL inh: displaces fluorescein MLL peptide from human menin; 290,000 tested, under 10 active; FP activity change, % at 61.4 µM; Fluorescence polarization, fluorescein-MLL peptide displacement from menin; inconclusive = falling polarisation curve, or a change in total fluorescence; inactive = total fluorescence flat and polarisation flat or rising; no compound was filed as active; the % refers to the polarisation; negative = inhibition;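 further: % of control where 0% means no effect; inhibitors lower the polarisation; unlabelled MLL peptide was the positive control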
gsp ag: agonists of gsp mutant (McCune-Albright syndrome). 340,000 compounds, 0.13% hits. AID 624287. Potency, µM (highest dose often 76.9 µM), inactives show at the highest dose activation (cAMP increase), actives largely listed as activators. gsp mutant cells, cAMP HTRF, 30 min; control for the full effect not named in the record; active = well fitted activation curve with a large enough effect; inconclusive = small, poorly fitted or top-dose-only effect, or another doubt; inactive = no such curve, though single readings can be large or run the other way; cell line not stated here;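 further: phosphodiesterase inhibitor Ro 20-1724 added with compounds to block cAMP breakdown; potency means the concentration at half of the fitted maximal effect; nearly all actives have a fitted effect of over 60% in size; about a fifth of the inactives were tested at one dose only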
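Cells stably selected in G418 were plated at 2000/well, grown 16-24 hr, then given compounds in DMSO with the PDE inhibitor […] (300 uM solution added) for 30 min at 37C; cAMP was read by HTRF.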
gsp antagonist: antagonizes gsp, the McCune-Albright syndrome mutation. gsp-mutant cells, cAMP HTRF, 30 min; control for the full effect not named in the record. Potency, µM (series often up to 76.9 µM), inactives show top-dose activity change, negative = inhibition, hits mostly inhibitors. 340,000 compounds, 0.4% hits; active = falling curve of any shape with a large fitted effect; inconclusive = falling curve, mostly with a smaller effect; inactive = flat or rising curve; cell line not stated here;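 further: intracellular cAMP measured with PDE inhibitor Ro 20-1724 present during compound exposure; potency means the concentration at half of the fitted maximal effect; on the % scale 0 is the no-effect control and ±100 the full control effect; nearly all actives have a fitted effect of over 65% in size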
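Cells, 2000/well, grown 16–24 h in DMEM 10% FBS with 0.5 mg/ml G418, then compounds plus […] (300 uM addition stock), 30 min at 37C. cAMP read by HTRF (cAMP-d2 and anti-cAMP antibody-K in lysis buffer) after 30 min RT.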
ClpP mod: qHTS Assay for Activators of ClpP; purified B. subtilis ClpP, FRET peptide cleavage, 20 min; Potency, µM (highest dose often 57.5 µM), without a hit: top-dose activity change, negative = active; 340,000 compounds, 1.9% hits; active = well fitted falling curve with a large enough effect; inconclusive = small, poorly fitted or top-dose-only effect; inactive = no such curve, though single readings can be large or run the other way; further: potency means the concentration at half of the fitted maximal effect; the source files actives as falling curves though it sought activators and does not explain the sign; nearly all actives have a fitted effect of over 65% in size; many hits overshoot -100%
Target sequence (P80244 whole entry, looked up): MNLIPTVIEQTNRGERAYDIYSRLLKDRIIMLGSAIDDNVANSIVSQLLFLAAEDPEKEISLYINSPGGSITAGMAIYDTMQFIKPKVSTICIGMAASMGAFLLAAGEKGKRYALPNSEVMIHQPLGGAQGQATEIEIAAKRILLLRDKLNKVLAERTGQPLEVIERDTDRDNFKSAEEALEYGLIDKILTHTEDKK
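FRET quenching reversal measured ClpP activation: 10 microg/mL B. subtilis ClpP at pH 8 with the FRET-FV decapeptide, read at 430 nm after 320 nm excitation. The 20-min minus 0-min signal was scaled between DMSO/no-enzyme wells and ADEP (5.8 microM final).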
TRPV1 potentiator: human TRPV1 potentiation; Q8NER1; potentiation, % at 8.33 µM; 320,000 compounds, 0.02% hits; TRPV1-expressing cells, Fluo-8 calcium influx, capsaicin EC20 potentiation; host cell line not named in the record; control for the full effect not named in the record; AID 540277; active means potentiation above 80%; inconclusive means 30% to 80%; inactive means below 30%; further: 0% is about no effect
Target sequence (Q8NER1 whole entry, looked up): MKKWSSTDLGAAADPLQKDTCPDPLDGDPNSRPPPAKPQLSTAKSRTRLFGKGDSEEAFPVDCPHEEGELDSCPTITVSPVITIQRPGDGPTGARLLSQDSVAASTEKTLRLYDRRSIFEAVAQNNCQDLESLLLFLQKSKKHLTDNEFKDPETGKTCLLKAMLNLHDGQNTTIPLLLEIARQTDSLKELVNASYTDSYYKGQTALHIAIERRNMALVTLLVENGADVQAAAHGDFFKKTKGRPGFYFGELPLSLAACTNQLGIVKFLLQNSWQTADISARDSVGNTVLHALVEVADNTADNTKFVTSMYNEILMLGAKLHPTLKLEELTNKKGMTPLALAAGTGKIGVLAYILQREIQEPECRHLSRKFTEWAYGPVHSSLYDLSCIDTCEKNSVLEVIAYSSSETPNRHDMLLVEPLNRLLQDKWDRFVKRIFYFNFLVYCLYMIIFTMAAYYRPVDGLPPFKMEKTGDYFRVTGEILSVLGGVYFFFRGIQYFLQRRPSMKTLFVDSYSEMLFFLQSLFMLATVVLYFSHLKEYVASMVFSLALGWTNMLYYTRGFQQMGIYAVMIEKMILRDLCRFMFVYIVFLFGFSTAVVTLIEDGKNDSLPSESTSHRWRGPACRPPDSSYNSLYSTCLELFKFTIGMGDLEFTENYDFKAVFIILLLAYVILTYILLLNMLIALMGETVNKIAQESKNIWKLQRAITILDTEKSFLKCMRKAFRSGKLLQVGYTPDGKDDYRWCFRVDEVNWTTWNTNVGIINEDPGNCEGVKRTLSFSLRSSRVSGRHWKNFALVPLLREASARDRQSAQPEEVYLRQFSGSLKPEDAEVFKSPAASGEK
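TRPV1-expressing cells were cultured overnight at 35.5C and loaded with Fluo-8 calcium dye for 40 to 90 min at room temperature. After a 10 s baseline, compound was added and calcium influx was read kinetically for 3 min (ex 480/em 520 nm).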
Sfp PPTase inh: inhibitors of Bacillus subtilis Sfp phosphopantetheinyl transferase; Potency, µM, for the others: max response, negative = inhibition, usual class: inhibitors; AID 1490; 310,000 compounds, 3.5% hits; Biochemical Sfp PPTase activity, qHTS; Q9F4F7; active means well fitted inhibition curve with a large enough effect; inconclusive means small, poorly fitted or top-dose-only effect, or another doubt; inactive means no such curve, though single readings can be large or run the other way;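 further: the enzyme is Sfp with the accession as filed and its product quenches rhodamine fluorescence; potency means the concentration at half of the fitted maximal effect; 0% = enzyme reaction without inhibitor and -100% = no enzyme wells; top concentration of the series not given in the record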
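Compounds were incubated with enzyme (final 15 nM) for 15 min at room temperature before substrate addition started the reaction. Fluorescence at 525 nm excitation, 598 nm emission was recorded immediately and after 30 minutes.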
D2 PAM: positive allosteric modulators of human D2 dopamine receptor; P14416; AID 624464; DiscoveRx D2 beta-arrestin cells, luminescence, 90 min; 100% = 57 uM dopamine signal; 360,000 compounds, 0.23% hits; potentiation, % (no concentration beside the values); active = potentiation of 50% or more; inconclusive = 30% to 50%; inactive = 30% or less;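 further: compound concentration not given in the record; tested on top of an EC20 dose of dopamine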
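PathHunter beta-arrestin assay in DiscoveRx D2 cells. Compounds were added with an EC20 of dopamine (50 nM final) for 90 min at 37 deg C. Luminescence was read 1 h after detection reagent, with 57 uM dopamine as the EC100 control.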
* hit, by the source's call; ? = inconclusive; / = no result given; [ ] = another dose, or the depositor's remark.

Sample of the layout:
Screens in order: Menin-MLL FL inh	gsp ag	gsp antagonist	ClpP mod	TRPV1 potentiator	Sfp PPTase inh	D2 PAM
> Nn1cnc2c(c1=O)C1(CCCCC1)Cc1ccccc1-2
 : /	12%	?	-10%	23	8%	-16
> COc1cccc(CN2CC(C(=O)NCCOc3ccccc3F)CCC2=O)c1 (stereo not given)
 : -1.5	0%	9%	0.2%	-4	15%	-3
> O=C(Nc1nnc(-c2ccco2)o1)c1cccc(N2C(=O)CCC2=O)c1
 : -0.4	1%[15.4 µM]	7%	/	?	-54%	5
> O=C1C2CC=C(Cl)CC2C(=O)N1CCC[n+]1cccc2ccccc21 (stereo not given)
 : -1.0	20%	10%	-16%	0	14%	-3
> [O-][N+]12CCCCC1CCCC2CO (stereo not given)
 : -1.8	17%	6%	-1.1%	10	20%	-14
> CC(=O)c1cccc(NC(=O)COC(=O)C2CCCN2C(=O)c2cccs2)c1 (stereo not given)
 : /	1%	-3%	-2.4%	/	/	11

The list itself, from the first entry:
Screens in order: Menin-MLL FL inh	gsp ag	gsp antagonist	ClpP mod	TRPV1 potentiator	Sfp PPTase inh	D2 PAM
> Nn1cnc2c(c1=O)C1(CCCCC1)Cc1ccccc1-2
 : /	12%	?	-10%	23	8%	-16
> COc1cccc(CN2CC(C(=O)NCCOc3ccccc3F)CCC2=O)c1 (stereo not given)
 : -1.5	0%	9%	0.2%	-4	15%	-3
> O=C(Nc1nnc(-c2ccco2)o1)c1cccc(N2C(=O)CCC2=O)c1
 : -0.4	1%[15.4 µM]	7%	/	?	-54%	5
> O=C1C2CC=C(Cl)CC2C(=O)N1CCC[n+]1cccc2ccccc21 (stereo not given)
 : -1.0	20%	10%	-16%	0	14%	-3
> [O-][N+]12CCCCC1CCCC2CO (stereo not given)
 : -1.8	17%	6%	-1.1%	10	20%	-14
> CC(=O)c1cccc(NC(=O)COC(=O)C2CCCN2C(=O)c2cccs2)c1 (stereo not given)
 : /	1%	-3%	-2.4%	/	/	11
> COc1ccc(N2CCN(C(=O)CCS(=O)(=O)c3ccc4c(c3)CCN4C(=O)C3CC3)CC2)cc1
 : /	13%	-8%	-3.7%	-9	6%	-8
> CSc1ccc(COC(=O)CCS(=O)(=O)c2ccc(C)cc2)cc1
 : /	-75%[inhibitor]	-12%	1.5%	-9	/	-11
> Cc1ccc(S(=O)(=O)N(c2cccc(C)c2)C2CCS(=O)(=O)C2)cc1 (stereo not given)
 : 0.4	-2%	-3%	-0.1%	10	9%	6
> CCOc1ccc(CCNC(=O)COC(=O)COc2ccc(C#N)cc2)cc1OCC
 : /	18%	-13%	-1.3%	9	/	-10
> O=[N+]([O-])c1cc(S(=O)(=O)N2CCCC2)ccc1N/N=C/c1ccncc1
 : -0.6	?	3%	-0.4%	7	-6%	-5
> CC(=O)N1c2ccccc2C2CCCC[C@H]21 (stereo not given in full)
 : /	29%	3%	-3.0%	12	/	-16
> CCC(=O)NCCCc1nc(-c2ccccc2)no1
 : /	-28%	7%	-0.5%	/	/	22
> COc1ccc(NC(=O)C2CCCN(S(=O)(=O)c3c(C)[nH]c(=O)[nH]c3=O)C2)cc1OC (stereo not given)
 : -0.8	-18%[15.4 µM]	13%	0.5%	1	17%	-3
> CCN1CCN(Cc2ccc(NC(=O)CC3Oc4ccc(C)cc4NC3=O)cc2)CC1 (stereo not given)
 : -0.3	?	6%	0.7%	1	9%	-1
> CC(C)NC(=O)CCn1nc(-c2ccc(Cl)cc2)c2ccccc2c1=O
 : 1.0	0%	-15%	-1.2%	-1	9%	-7
> Cc1ccc(-c2csc(NC(=O)CN3CCOCC3)n2)cc1
 : -0.8	2%[15.4 µM]	-1%	/	-11	21%	-3
> Cc1nn(Cc2ccc(Cl)c(Cl)c2)c(C)c1NC(=O)c1sc2ccccc2c1Cl
 : -1.8	-9%	-27%	7.8%	2	-1%	-18
> Cn1c(CO)cnc1SCC(=O)c1ccc(Cl)cc1
 : 1.3	14%	-1%	/	11	-2%	0
> NC(=S)NN=C1Cc2cccc3cccc1c23
 : /	3%[15.4 µM]	-2%	-0.6%	/	/	-3
> CCOC(=O)c1cc2cc(OC)ccc2nc1C
 : -1.6	-23%	-10%	32µM*	-1	1%	9
> CN(CC(=O)NCCc1ccccc1)S(=O)(=O)c1cnc[nH]1
 : 0.3	6%	7%	-0.5%	-2	37%[activator]	-3
> COc1ccc(OC)c(N(CC(=O)Nc2cccc3ccccc23)S(C)(=O)=O)c1
 : /	4%[15.4 µM]	-23%	1.3%	/	/	-2
> Cc1ccccc1OCCC(=O)OCC(=O)N1c2ccccc2NC(=O)C1(C)C
 : /	1%	8%	1.7%	17	/	-3
> CCN(CC)c1nc(NNC(=O)c2ccccc2)nc(N(CC)CC)n1
 : /	7%	-8%	1.1%	/	/	3
> O=C(Nc1ccc(Oc2cccc(C(F)(F)F)c2)nc1)c1cccs1
 : 9.8	11%	-8%	/	?	29%	0
> C=CCOc1c(Cl)cc(C(=S)N2CCCC2)cc1OCC
 : ?	16%[15.4 µM]	-2%	-0.1%	-8	13%	-7
> O=C(Nc1ccc2nc3n(c(=O)c2c1)CCCC3)c1cc([N+](=O)[O-])ccc1F
 : 6.6	-9%[15.4 µM]	21%	1.8%	-4	9%	24
> O=C(Nc1cccc(Cl)c1)Nc1cccc(Cl)c1
 : 1.7	16%	35µM*	-3.2%	-21	-3%	-9
> O=C(O)C=C1CCN(c2ncc(C(F)(F)F)cc2Cl)CC1
 : -0.8	3%	-7%	-2.4%	4	9%	-3
> CN(C)c1ccc(N=Nc2ccc(S(=O)(=O)O)cc2)c2ccccc12
 : -15	3%	-5%	-2.4%	2	7%	-22
> O=c1c2c(nc3cc(-c4ccc(F)cc4)[nH]n13)CCC2
 : 1.2	-46%[inhibitor]	4%	6.3µM*	-5	5%	-8
> C=CCc1c(C)nc(-c2ccccc2)nc1N/N=C(\C)c1ccc(N)cc1
 : -1.8	-9%	1%	-2.5%	2	?	-4
> COc1cc(Nc2cccc[n+]2C)cc(OC)c1OC
 : -1.8	?	9%	-1.4%	-14	-5%	0
> Cc1csc(NC(C)c2nc3cc(C(F)(F)F)ccc3n2CCCO)n1 (stereo not given)
 : /	2%	-8%	0.4%	/	/	-16
> O=C(O)Cn1cc(C(=O)c2cccs2)c2ccccc21
 : -0.4	?	7%	-0.8%	3	27%	0
> COc1ccc(CN2CCCC(C(=O)c3ccc(Cl)cc3)C2)cc1Cn1cccn1 (stereo not given)
 : -3.5	-4%	-2%	-0.2%	-7	9%	-35
> NC(=O)C1CCN(C(=S)c2cccs2)CC1
 : 1.6	-2%	-5%	-1.6%	6	6%	1
> CCCNC(=O)COc1ncnc2sc(C)c(C)c12
 : -4.8	21%	3%	-1.1%	2	8%	-5
> CCOc1ccc(S(=O)(=O)NCCC(=O)NC2=NCCS2)cc1
 : 3.5	-4%	4%	-1.3%	3	15%	-17
> O=C1C2CC=CCC2C(=O)N1CC(=O)N(Cc1ccccc1)C1CCS(=O)(=O)C1 (stereo not given)
 : 2.0	19%	3%	1.3%	17	-8%	8
> CC(C)C(=O)Nc1ccc(NC(=O)c2ccccc2Cl)nc1
 : 1.1	-25%	9%	0.8%	-13	-7%	-3
> CCN(CC)CCOC(=O)c1ccc(Cl)cc1
 : -1.2	18%	5%	1.5%	10	-5%	-46
> COC(=O)CCCC(=O)Nc1c(F)c(F)c(F)c(F)c1F
 : 3.9	-22%	-3%	-0.8%	5	6%	-3
> CCOC(=O)Cc1nnc(NC(=O)C(CC)Sc2nnc3c4ccccc4n(C)c3n2)s1 (stereo not given)
 : 2.6	?	2%	-1.0%	2	17%	-1
> O=C(CSC(=S)N1CCSCC1)c1ccc(Cl)cc1
 : 6.4	10%[15.4 µM]	1%	/	17	-6%	0
> c1cncc(-c2nc3c(ccc4ccccc43)[nH]2)c1
 : 14	8%	-1%	?	-12	-12%	-7
> Cc1cc(NC(=O)CSc2nc3c(C)c(C)ccc3cc2C)no1
 : 0.1	24%[15.4 µM]	6%	548%	?	0%	-4
> O=c1[nH]c(-c2ccccn2)nc(C(F)(F)F)c1Br
 : 6.3	15%	-7%	/	6	?	-12
> COC(=O)C1=CC(C(=O)c2cccs2)=NN(c2ccc(OC)cc2)C1C(=O)OC (stereo not given)
 : ?	24%	-25%	/	-5	-3%	-7

(list continues)
Screens in order: Menin-MLL FL inh	gsp ag	gsp antagonist	ClpP mod	TRPV1 potentiator	Sfp PPTase inh	D2 PAM
> C=C(C)CN=C1NN=C(c2cc(C)n(-c3ccc(C)cc3)c2C)CS1
 : 7.8	-2%	-10%	-2.0%	2	-7%	7
> CCCOc1ccc(C(=O)O)cc1
 : -0.3	-7%[15.4 µM]	5%	/	-4	24%	-1
> NCCCCCc1cn(CC(=O)NCCCCCCCCCCC(=O)N2CCNCC2)nn1
 : /	/	-6%	-3.6%	-36	/	-10
> O=C(NCC1CCCO1)c1ccc(NC(=O)C2C3C=CC(C3)C2C(=O)O)cc1 (stereo not given)
 : 0.8	0%	14%	-3.2%	0	-2%	2
> CCc1ccc(OCC(=O)N(Cc2cccs2)C2CCS(=O)(=O)C2)cc1 (stereo not given)
 : -0.4	-31%[inhibitor]	8%	1.5%	12	5%	-1
> O=C(CNC(=O)c1ccc(Cl)cc1)c1ccc(Cl)cc1
 : 6.3	6%	-3%	/	-7	9%	-4
> O=C(Cn1cnc2c(cnn2-c2ccccc2)c1=O)N1CCCc2ccccc21
 : 1.5	-24%	-33%	-10%	-25	-3%	10
> N#CCCCn1c(O)c(N=NC(=O)C(O)c2ccccc2)c2ccccc21 (stereo not given)
 : -0.8	-33%[inhibitor]	-3%	-0.7%	5	4%	-5
> O=C(NC1CCCCCC1)c1ccc(-n2cnnc2)cc1
 : -1.6	-21%	8%	-0.9%	-6	13%	1
> O=C(N/N=C\c1ccc(OCC(=O)N2CCCC2)cc1)C(=O)Nc1ccccc1F
 : -1.1	0%[15.4 µM]	-3%	-2.6%	-4	-5%	-4
> Cn1c(CO)cnc1SCc1ccccc1
 : 2.4	0%	3%	-0.5%	-1	14%	2
